High-throughput results deposited in PubChem BioAssay by several laboratories.
Vif A3G – HIV-1 Vif–A3G interaction blockers – biochemical, TR-FRET, GST-Vif 1-94, biotin-A3G peptide, dose response retest, primary screen (AID 1117319) | inhibition, %; hits with a dose series show IC50 in µM | hit rate 0.57% among 260,000 | TR-FRET GST-Vif / biotin-A3G peptide binding; higher % means a stronger effect; test concentration not given here; strong numbers were not always called active;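 active = above the screen mean plus three standard deviations and confirmed in dose response; inconclusive = results disagree or hit not tested in dose response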;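 note: Vif residues 1-94 fused to GST binding biotinylated APOBEC3G peptide 110-148; 0% = full assay without inhibitor and 100% = GST in place of GST-Vif; retest series ran down from 100 µM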
HNF4A DNA FP – change in binding of human HNF4 alpha to DNA; activity change, % at 10 µM; HNF4a-FITC DNA binding, fluorescence polarization, 1 h; P41235; hit rate 0.3% among 360,000; AID 1224865; in the data active = activity change above about 30%, passing the limit was not always enough;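 note: controls were the assay level and a saturating level of protein; the project sought stronger binding though the title names inhibitors; some compounds called inactive have numbers as strong as hits; positive values seem to mean higher polarization but the record does not say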
Target sequence (P41235 whole entry, looked up): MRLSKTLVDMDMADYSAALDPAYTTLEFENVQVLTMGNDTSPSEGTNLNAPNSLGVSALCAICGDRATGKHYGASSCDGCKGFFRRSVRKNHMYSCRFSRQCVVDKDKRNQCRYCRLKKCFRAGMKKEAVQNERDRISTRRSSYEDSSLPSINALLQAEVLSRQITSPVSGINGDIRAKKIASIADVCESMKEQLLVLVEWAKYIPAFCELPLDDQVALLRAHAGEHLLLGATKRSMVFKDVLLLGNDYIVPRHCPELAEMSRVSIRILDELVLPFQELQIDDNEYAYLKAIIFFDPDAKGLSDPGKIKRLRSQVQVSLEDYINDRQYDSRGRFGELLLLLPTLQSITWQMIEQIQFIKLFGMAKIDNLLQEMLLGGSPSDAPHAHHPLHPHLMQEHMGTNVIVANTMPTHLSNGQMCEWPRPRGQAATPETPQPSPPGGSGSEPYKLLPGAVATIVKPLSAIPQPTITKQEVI
FGF22 binding – FGF22 (human) thermal shift binding; recombinant FGF22 thermal shift, SYPRO orange fluorescence; percent of sucrose octasulfate shift, DMSO zero; hit rate 1.5% among 340,000; calls only at 9.99 µM;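 active = melting point raised past a set limit in the mean and every replicate; inconclusive = no clear call; three in four hits are not shown here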
Target sequence (Q9HCT0 whole entry, looked up): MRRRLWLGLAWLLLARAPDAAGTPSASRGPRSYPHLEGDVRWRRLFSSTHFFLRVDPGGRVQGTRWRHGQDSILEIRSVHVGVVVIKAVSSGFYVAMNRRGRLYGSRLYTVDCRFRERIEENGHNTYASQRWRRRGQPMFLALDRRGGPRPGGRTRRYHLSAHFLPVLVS
ALR inh – human ALR oxidase inhibition via reduced H2O2 | P55789 | hit rate 3.8% among 290,000 | purified ALR, DTT oxidation, H2O2 HRP-luminol luminescence | inhibition, % (test concentration not listed);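 active = mean and each replicate at 75% or more; inconclusive = only one of the two met; inactive = neither met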;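 note: stock transfer was 7.5 nL into about 7.5 µL; 0% = neutral wells and 100% = wells with inactivated enzyme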
Target sequence (P55789 whole entry, looked up): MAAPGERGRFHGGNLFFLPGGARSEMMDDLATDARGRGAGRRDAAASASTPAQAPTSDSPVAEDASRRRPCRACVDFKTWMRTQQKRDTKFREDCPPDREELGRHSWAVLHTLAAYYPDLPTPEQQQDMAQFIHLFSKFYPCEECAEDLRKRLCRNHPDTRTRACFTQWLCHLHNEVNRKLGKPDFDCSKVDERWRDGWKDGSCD
AF4-AF9 inh – MLL-AF4/AF9 protein interaction inhibition | P42568 | AlphaScreen, biotin-AF4 peptide binding to FLAG-AF9 | inhibition, % at 10 µM | hit rate 0.47% among 350,000;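 active = every replicate reaching a set inhibition limit, whatever the replicate mean, cut at about 25% in these data; inconclusive = mean inhibition reaches that limit but some replicates miss it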;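 note: 0% = plate neutral control median and 100% = total signal loss; the record names both 10 and 1 µM as test concentration; the first replicate is given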
Ecoli growth – blocks Escherichia coli growth; AID 1053175; OD600 absorbance (no concentration beside the values); hit rate 0.21% among 330,000; OD600, 23 h; hits give low values;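 active = OD600 absorbance below the run mean of sample wells minus 3.6 SD, in any replicate, cut at about 0.56 in these data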;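 note: stock transfer was 300 nL into about 60 µL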
Ecoli rRNA inh – inhibitors of bacterial rRNA selective over humanized ribosomes; E. coli WT GFP vs humanized-ribosome RFP mutants, fluorescence, 24 h; hits give low values; DMSO median 0, no signal -100; GFP signal change (wild-type ribosome), % (concentration not given with the values); hit rate 1.6% among 350,000;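 active = significant combined selectivity score with lowered wild-type GFP, culture density cut under 30%, mutant RFP and density less affected; inactive = any of these conditions unmet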; note: one replicate is shown; some compounds called inactive have numbers as strong as hits
Ecoli rRNA inh OD600 – further read-out of Ecoli rRNA inh, marked with its call; OD600 change, %; measured here: OD600 growth;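 optical density of the mix in the first replicate; 0 = DMSO median and -100 = no signal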
Ecoli rRNA inh RFP – recorded beside Ecoli rRNA inh, whose call it bears; RFP signal change, %; measured here: RFP humanized mutant strains;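 first replicate; 0 = DMSO median and -100 = no signal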
Starred values were filed as active, the others as inactive; i = inactive; ? = inconclusive; . = no result given. An excerpt, so the mix of outcomes need not match the whole.

Results follow in this order: Vif A3G	HNF4A DNA FP	FGF22 binding	ALR inh	AF4-AF9 inh	Ecoli growth	Ecoli rRNA inh	Ecoli rRNA inh OD600	Ecoli rRNA inh RFP
> COC(=O)c1ccc(-c2ccc(C(c3c(C)[nH][nH]c3=O)c3c(C)[nH][nH]c3=O)o2)cc1
  .	-5.2	.	-11	2.9	0.71	15	20	0.9
> O=C(C[C@@H]1C=C[C@@H](NS(=O)(=O)c2ccccc2F)[C@@H](CO)O1)NCCCN1CCOCC1
  .	.	i	.	0.9	.	-1	-8	1.3
> COc1ccc(CN(CC(O)COCc2ccccc2)S(=O)(=O)c2ccccc2Br)cc1 (centres undefined)
  8%	1.0	i	.	5.5	0.7	-21	-26	-4.1
> Cc1ccccc1N1C(=O)CC2(CCCC2)CC1=O
  9%	1.6	i	0	-1.0	0.73	0	-7	-4.2
> O=C(/C=C/c1ccco1)Nc1cccnc1Cl
  .	-3.4	i	.	-0.6	0.64	.	.	.
> Cc1cc(NC(=O)NC(=O)c2ccccc2NC(=O)C(C)N)ccc1Oc1ncc(Br)cn1 (centres undefined)
  .	0.4	i	.	-0.2	.	-6	3	13
> Cc1cc(NC(=O)C2CC(c3ccc(F)cc3)=NO2)n(-c2ccccc2)n1 (centres undefined)
  3%	2.4	i	33	0.7	0.71	2	-20	-5.2
> Cc1noc(C)c1NC(=O)Nc1ccc2c(c1)CC(=O)N([C@H](C)CO)C[C@H](C)[C@@H](CN(C)Cc1ccc(-c3ccccc3)cc1)O2
  .	.	i	.	4.2	.	1	-34	14
> CCCCCC(=O)NCc1c(C(F)(F)F)nn(C)c1N1CCOCC1
  -11%	2.2	.	-7	-2.4	0.71	2	11	0.0
> CC(C)(C)[C@H]1C=C(C(N)=O)O[C@@H](OCCCCO)C1
  .	1.7	i	31	.	.	2	11	1.2
> COc1ccc(/C=C(/NC(=O)c2ccc(Br)cc2)C(=O)N2CCOCC2)cc1
  14%	-1.3	i	-11	-2.0	0.67	10	3	3.0
> CNC[C@H]1OCCCC[C@@H](C)Oc2ccc(NC(=O)C3CCCCC3)cc2C(=O)N([C@H](C)CO)C[C@@H]1C
  .	.	i	.	-0.9	.	4	5	0.8
> C[C@@H]1CCCCO[C@H](CN(C)Cc2ccc3c(c2)OCO3)[C@H](C)CN([C@H](C)CO)C(=O)c2cc(NC(=O)CCC(F)(F)F)ccc2O1
  .	.	i	.	3.1	.	-2	-8	3.0
> COc1ccc(C2C(C(C)=O)=C(O)C(=O)N2c2ccc(Br)cn2)cc1 (centres undefined)
  4%	-4.7	.	5	.	0.78	.	.	.
> Cc1c(O)nc(SCC(=O)Nc2ccc3c4c(cccc24)CC3)n(-c2ccccc2)c1=O
  4%	0.7	.	.	.	0.68	.	.	.
> COc1ccc(CN(C)C[C@@H]2Oc3ccc(NC(=O)NC4CCCCC4)cc3CC(=O)N([C@H](C)CO)C[C@H]2C)cc1
  .	.	i	.	1.0	.	-4	1	-0.1
> N#Cc1ccc2ccn(CC(=O)N3CCCc4ccccc43)c2c1
  -1%	0.5	.	-6	.	0.69	.	.	.
> COc1ccccc1C(=O)COC(=O)C1(C)CC1(Cl)Cl (centres undefined)
  -8%	1.3	i	3	-3.5	0.67	-45	-62	-5.9
> CCOc1ccccc1NC(=O)CCC(=O)O
  1%	-0.8	.	-2	.	0.64	.	.	.
> CCOC(=O)C1(Cc2cccc(Cl)c2)CCCN(C(=O)c2ccc(C)nc2)C1 (centres undefined)
  -5%	0.7	i	-2	-0.5	0.65	-5	6	1.0
> CCOc1ccc(C(=O)NC(C)C2COc3ccccc3O2)cc1 (centres undefined)
  .	-2.8	i	-1	0.6	0.64	-14	-22	-2.5
> C/C=C/c1ccc2c(c1)O[C@@H](CN(C)Cc1ccc(C(=O)O)cc1)[C@H](C)CN([C@H](C)CO)S2(=O)=O
  .	.	i	.	3.7	.	-6	0	-2.6
> C[C@@H]1CCCCO[C@H](CN(C)S(=O)(=O)c2ccc(F)cc2)[C@H](C)CN([C@H](C)CO)C(=O)c2cc(N(C)C)ccc2O1
  .	.	i	.	10	.	-3	-5	1.5
> Cc1cc(C(=O)CN2C(=O)c3ccccc3S2(=O)=O)c(C)n1-c1ccccc1
  6%	4.7	.	-2	.	0.72	.	.	.
> COc1ccccc1-n1c(SCC(=O)O)nc2c(sc(=S)n2-c2ccc(C)c(C)c2)c1=O
  -8%	-0.3	i	7	1.0	0.64	-21*	-14*	-0.2*
> Cc1[nH]n(-c2ccccc2)c(=O)c1C(C[N+](=O)[O-])c1ccc(Cl)cc1 (centres undefined)
  2%	1.9	.	.	.	0.55	.	.	.
> O=C(NCC1CCCO1)c1ccc2c(c1)OCO2 (centres undefined)
  0%	4.3	i	-6	1.9	0.62	1	-1	-2.2
> Cc1nc(-c2ccccc2)cs1
  ?	-2.3	.	-4	.	0.73	.	.	.
> COc1cc(OC)cc(C(=O)NC2CCSc3ccccc32)c1 (centres undefined)
  .	-1.0	i	-2	-1.6	0.69	-1	2	-4.2
> CCc1ccc(C(=O)Cc2cc3cccc(OC)c3oc2=O)cc1
  -9%	-2.2	i	-8	-0.1	0.67	0	4	-0.2

A few values from the results shown:
O=C(C[C@@H]1C=C[C@@H](NS(=O)(=O)c2ccccc2F)[C@@H](CO)O1)NCCCN1CCOCC1 – AF4-AF9 inh = 0.9
Cc1cc(NC(=O)C2CC(c3ccc(F)cc3)=NO2)n(-c2ccccc2)n1 (centres undefined) – AF4-AF9 inh = 0.7

Next section.
Results follow in this order: Vif A3G	HNF4A DNA FP	FGF22 binding	ALR inh	AF4-AF9 inh	Ecoli growth	Ecoli rRNA inh	Ecoli rRNA inh OD600	Ecoli rRNA inh RFP
> O=C(c1cc(Cl)nc2ccccc12)N(Cc1nnc(-c2ccc(Cl)cc2)o1)C1CC1
  6%	-0.8	i	-5	-0.7	0.67	-27*	-22*	1.9*
> Cc1nc(Nc2ccc(S(=O)(=O)N3CCCCC3C)cc2)c2nnn(Cc3ccccc3)c2n1 (centres undefined)
  1%	0.8	i	1	2.1	.	5	-3	-8.0
> CC(C)CCCN1C(Nc2ccccc2)=NC[C@@H]1CC(C)C
  .	2.0	i	4	0.8	.	-9	-33	-1.0
> CSc1ccc(NC(=O)N2CCN(c3nc4ccccc4s3)CC2)cc1
  2%	0.4	.	-6	.	0.69	.	.	.
> COc1ccc(C(=O)Nc2ccc(OC)c(OC)c2)cc1
  6%	-0.3	.	-6	.	0.68	.	.	.
> CCOC(=O)c1sc2ccccc2c1OC(=O)c1ccccc1
  -2%	-2.9	.	8	.	0.71	.	.	.
> O=S1(=O)CCN(Cc2ccccc2Cl)CC1
  -2%	2.0	.	.	.	0.75	.	.	.
> O=C(NCc1ccccc1)c1ccc(Cl)c(NC2=NC3CS(=O)(=O)CC3S2)c1 (centres undefined)
  .	0.1	i	-12	-0.4	0.71	-3	1	-8.8
> CC(C)[C@H](NC(=O)c1ccco1)C(=O)OCC(=O)N1CC(=O)Nc2ccccc21
  8%	1.0	i	35	2.2	0.72	-2	5	0.3
> COc1cc(C(=O)OCCCOC(=O)c2cc(OC)c(OC)c(OC)c2)cc(OC)c1OC
  .	1.7	i	2	0.0	0.69	-5	-3	0.5
> COc1ccc2nc(SCC(=O)NC3CC3)c(C#N)cc2c1
  .	-0.1	i	0	1.6	0.66	9	9	-0.1
> Cc1cc(C)cc(NC(=S)N2CCC(C(=O)c3ccc(F)cc3)CC2)c1
  .	2.2	i	.	-0.9	0.69	17	10	-0.2
> Cc1ccc(CSCCNC(=O)/C=C/c2ccccc2Cl)cc1
  -1%	-4.7	i	-14	-2.8	0.68	12	4	-2.9
> COC(=O)Cn1cc(C(=O)C2CC2)c2ccccc21
  0%	-1.3	.	-24	.	0.67	.	.	.
> C[C@@H]1CCCCO[C@@H](CN(C)Cc2ccc(Cl)c(Cl)c2)[C@H](C)CN([C@H](C)CO)C(=O)c2cc(NC(=O)Nc3cccc4ccccc34)ccc2O1
  .	.	i	.	-1.4	.	-1	5	-2.0
> COc1ccccc1NS(=O)(=O)c1cccc(C(=O)N(C)Cc2cccs2)c1
  .	1.7	i	2	-1.0	0.68	-8	-18	1.5
> CC(OC(=O)/C(C#N)=C/c1ccc(N(C)C)cc1)C(=O)NCc1ccco1 (centres undefined)
  .	7.2	i	0	1.1	.	12	14	4.2
> CCN(CC)S(=O)(=O)c1ccc2c(c1)CC(C(=O)N1CCCC1)N2C(C)=O (centres undefined)
  -1%	0.8	i	-7	0.7	0.67	2	10	-4.2
> CC1(C)Cc2cccc(Oc3cc(NN4CCCCC4)c([N+](=O)[O-])cc3[N+](=O)[O-])c2O1
  .	5.4	i	3	2.1	0.69	5	12	-11
> Clc1ccc(N2CCN(/N=C/c3ccncc3)CC2)cc1
  -6%	2.7	i	0	.	.	4	-15	0.6
> CCOC(=O)C1CCN(C(=O)Cn2cnc3sc(C)c(S(=O)(=O)N4CCOCC4)c3c2=O)CC1
  -4%	1.9	i	.	3.2	0.7	11	0	1.4
> O=C(Nc1ccc(C2=NCCN2)cc1)c1ccc(C(=O)Nc2ccc(C3=NCCN3)cc2)c([N+](=O)[O-])c1
  ?	76	i	-9	38*	.	-58	-79	-18
> COc1cccc(C2CC(C(F)(F)F)n3ncc(C(=O)NCc4ccco4)c3N2)c1 (centres undefined)
  -10%	-0.4	.	-1	.	0.68	.	.	.
> CCCc1nn(C)c2c1C(c1cccnc1)C(C#N)=C(N)O2 (centres undefined)
  2%	-2.2	.	21	.	0.64	.	.	.
> O=C(CSC1=NCCN1)NC12CC3CC(CC(C3)C1)C2
  -3%	4.4	.	66	.	0.68	.	.	.
> CC(OC(=O)C1CC(=O)N(Cc2ccccc2)C1)C(=O)Nc1cccc(C#N)c1 (centres undefined)
  .	0.4	i	0	-1.1	0.69	-2	3	0.0
> CCOc1ccc(CN2CCN(C3CCSCC3)CC2CCO)cc1 (centres undefined)
  21%	2.1	i	-4	1.9	0.76	18	15	2.7
> C=CCn1cnc2c(nnn2-c2ccc(C)c(C)c2)c1=O
  -11%	0.6	i	30	1.4	0.7	2	-2	2.1
> Cn1c(=O)c2c(nc(N3CCNCC3)n2Cc2ccccc2Cl)n(C)c1=O
  19%	-1.9	i	0	-1.3	0.67	8	14	-0.7
> O=C(NCn1cnccc1=O)c1ccccc1
  -2%	-1.9	.	-4	.	0.75	.	.	.
